Screening results (PubChem BioAssay)
LASV entry inh – blocks Lassa virus binding to or entry into cells; Lassa virus pseudotype entry inhibition, cell reporter; control for the full effect not named in the record; Potency, µM (titrated, usually from 37.9 µM), for inactives: at the top dose activity change, negative = inhibition, actives largely listed as inhibitors; 300,000 tested, 1.2% active; AID 540256; active means well fitted inhibition curve with a large enough effect; inconclusive means small, poorly fitted or top-dose-only effect, or effect the other way; inactive means flat fitted curve, though single readings scatter; tested in HEK293 cells; note: % is set by controls: 0 for no effect and ±100 for the full control effect; nearly all actives have a fitted effect of over 50% in size; luciferase read-out
2A StopGo – FMDV 2A StopGo reporter, luciferase signal. Potency, µM (series often up to 57.9 µM), without a hit: top-dose signal change, negative = less light. 410,000 tested, 1.2% active. AID 1159524. human cells with a luciferase reporter of 2A StopGo recoding; control for the full effect not named in the record; active = well fitted falling curve with a large enough effect; inconclusive = small, poorly fitted or top-dose-only effect; inactive = no such curve, though single readings can be large or run the other way; tested in HEK293T cells; note: % is set by controls: 0 for no effect and ±100 for the full control effect; nearly all actives have a fitted effect of over 45% in size; luciferase light after 4 h
Cruzain noTriton – blocks cruzain activity in detergent-free assay | Potency, µM, for the others: max response, negative = inhibition, most hits filed as inhibitors | P25779 | purified cruzain, Z-FR-AMC fluorescence, no detergent | 200,000 tested, 2.3% active | AID 1476;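 note: plate controls were enzyme without inhibitor for no effect and buffer without enzyme for full effect; nearly all actives have a fitted effect of over 40% in size; top concentration of the series not given in the record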
Target sequence (P25779 123-467 limits assumed): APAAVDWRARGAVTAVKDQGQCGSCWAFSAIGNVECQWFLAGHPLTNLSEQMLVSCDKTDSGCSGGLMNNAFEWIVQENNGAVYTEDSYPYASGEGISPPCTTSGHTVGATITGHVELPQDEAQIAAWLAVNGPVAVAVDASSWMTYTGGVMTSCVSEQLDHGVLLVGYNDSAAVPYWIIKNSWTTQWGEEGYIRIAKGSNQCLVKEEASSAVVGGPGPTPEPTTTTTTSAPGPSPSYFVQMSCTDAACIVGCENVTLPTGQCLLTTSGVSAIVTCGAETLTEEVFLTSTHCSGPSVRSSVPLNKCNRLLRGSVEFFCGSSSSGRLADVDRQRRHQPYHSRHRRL
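Purified cruzain at 1.5 nM, pre-incubated 15 min with compound at room temperature in 100 mM sodium acetate pH 5.5, 5 mM DTT, 0.00005% Triton X-100. Reaction started with 2 uM Z-FR-AMC; AMC fluorescence increase over 60 s gives rate.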
Cruzain Triton – cruzain (T. cruzi) inhibition with detergent. purified cruzain, Z-FR-AMC fluorescence, 0.01% Triton. 200,000 tested, 0.43% active. P25779. Potency, µM, for the others: max response, negative = inhibition, most hits filed as inhibitors;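 note: plate controls were neutral wells for no effect and buffer without enzyme for full effect; nearly all actives have a fitted effect of over 40% in size; top concentration of the series not given in the record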
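Enzyme 1.5 nM, Z-FR-AMC 2 uM, NaOAc 100 mM pH 5.5, DTT 5 mM, Triton X-100 0.01%; 15 min RT compound preincubation; kinetic ex360/em450, 60 s delta.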
SARS PLpro yeast – inhibitors of SARS-CoV papain-like protease in yeast; S. cerevisiae expressing SARS-CoV PLpro, growth rescue; control for the full effect not named in the record; Potency, µM (series often up to 32.9 µM), without a hit: at the top dose activity, positive = growth rescue; 330,000 tested, 0.19% active; active means well fitted rising curve with a large enough effect; inconclusive means small, poorly fitted or top-dose-only effect; inactive means no such curve, though single readings can be large or run the other way; note: 0% is about no effect; nearly all actives have a fitted effect of over 55% in size; growth read by luminescence after 48 h
NS1 inh – blocks influenza NS1 protein function | 270,000 tested, 0.4% active | S. cerevisiae slowed by influenza A NS1, growth recovery by OD600 | Potency, µM (top dose mostly 46.1 µM), inactives show at the highest dose activity, positive = more growth; active means well fitted rising curve with a large enough effect; inconclusive means small, poorly fitted or top-dose-only effect; inactive means no such curve, though single readings can be large or run the other way; note: nearly all actives have a fitted effect of over 50% in size
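Read-out: OD600 growth recovery of NS1-expressing budding yeast. Cells grown overnight at 30C in -URA glucose medium, washed, resuspended and diluted 1:100 in 2% galactose assay medium, pH 6.0. Same strain lacking NS1 served as positive control.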
Marburg entry inh – blocks Marburg virus binding to or entry into cells | Marburg virus pseudotyped entry inhibition, cell reporter; control for the full effect not named in the record; about a third of the inactives were read at about 46 µM | AID 540276 | 300,000 tested, 1.8% active | Potency, µM (highest dose often 37.8 µM), for the others: top-dose activity change, negative = inhibition, most hits filed as inhibitors; active = well fitted inhibition curve with a large enough effect; inconclusive = small, poorly fitted or top-dose-only effect, or effect the other way; inactive = flat fitted curve, though single readings scatter; tested in HEK293 cells; about a fifth of its hits are not listed in these tables; note: % is set by controls: 0 for no effect and ±100 for the full control effect; luciferase read-out
RE007 growth inh – less growth of the S. pombe RE007 Vpr strain; S. pombe RE007 Vpr strain, BacTiter-Glo ATP luminescence, 24 h; control for the full effect not named in the record; 360,000 tested, 0.21% active; AID 651644; Potency, µM (doses to about 92.2 µM), inactives show at the top dose activity change, negative = less growth; active = well fitted falling curve with a large enough effect; inconclusive = small, poorly fitted or top-dose-only effect; inactive = no such curve, though single readings can be large or run the other way;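 note: % is set by controls: 0 for no effect and ±100 for the full control effect; nearly all actives have a fitted effect of over 50% in size; the assay follows cell death caused by Vpr and the record does not say whether a fall means rescue or toxicity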
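Fission yeast strain RE007, carrying one chromosomally integrated HIV-1 vpr copy, was seeded at OD 0.01 in PMG+AL medium with 23 nL pinned compound. After 24 h at 30 °C and 99% humidity, viability was read by BacTiter-Glo luminescence.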
* marks the source's active call; other numbers are inactive results; ? = inconclusive; nt = no result given; & = joins results of further samples; [ ] = dose if it differs, or a comment. Unless noted, calls come from the whole dose curve; as a rule, active = well fitted curve in the direction sought with a large enough effect; inconclusive = small, poorly fitted or top-dose-only effect, or another doubt; inactive = no such curve, though single readings can be large; an effect the other way counts as inactive or inconclusive. Potency is the fitted concentration of half-maximal effect.

SMILES	LASV entry inh	2A StopGo	Cruzain noTriton	Cruzain Triton	SARS PLpro yeast	NS1 inh	Marburg entry inh	RE007 growth inh
Nc1nc2ccc(C(=O)NC3CCCCC3)cc2s1	12%	0%	3%	-0.8%	-4%	-10%	0%	7%
Cc1cc(Br)ccc1SCC(=O)OCC(O)=C(C#N)c1nc2ccccc2[nH]1	-22%	-7%	nt	nt	nt	nt	?	5%
COc1ccc(/C=C(\NC(=O)c2ccco2)C(=O)N2CCOCC2)cc1	10%	-2%	nt	nt	-5%	13%	4%[46.1 µM]	2%
O=C(C1CCCN(S(=O)(=O)c2cnc[nH]2)C1)N1CCN(Cc2ccccc2)CC1 (stereo not given)	nt	-25%	-5%	2.4%	5%	12%	0%	7%
CCN(CC)S(=O)(=O)c1ccc(N/N=C(\C)c2cccnc2)nc1	nt	2%	nt	nt	0%	-1%	nt	8%
COc1ccc(S(=O)(=O)N2CCCOC2CNC(=O)C(=O)NCc2ccccc2F)cc1C (stereo not given)	-10%	1%	nt	nt	-5%	7%	6%	17%
N#CC(CCc1ccccn1)c1ccccc1 (stereo not given)	?	5%	nt	nt	nt	nt	4%	9%
O=S(=O)(Nc1n[nH]c(C(F)(F)F)n1)c1ccccc1	1%[46.1 µM]	25%	nt	nt	0%	1%	3%[46.1 µM]	-8%
Cc1cc(NC(=O)c2ccccc2Cl)c(C(C)C)cc1O	1%	-16%	0%	4.6%	-4%	19%	5%	13%
Fc1ccccc1C1c2[nH]c3ccccc3c2CCN1Cc1cccn1-c1ncccn1 (stereo not given)	?	13%	nt	nt	-2%	-1%	3.2µM*	5%
O=C(N/N=C1/CCSC1)c1cc(Br)ccc1O	8%	40%[activator]	nt	nt	-2%	-4%	-1%[14.2 µM]	-12%
COc1cccc(C(=O)N(Cc2ccccc2)Cc2cc3cc4c(cc3[nH]c2=O)OCCO4)c1	-12%	?	6%	-11%	-3%	8%	?	-1%
O=C(Nc1nnc(-c2cccnc2)o1)c1cccc(Cl)c1	?	16%	nt	nt	1%	nt	?	0%
CC1Cc2ccccc2N1C(=O)CSc1nc2ccccc2o1 (stereo not given)	18%	28%	-7%	-5.1%	3%	-83%	-41%	-11%
CCOC(=O)N1CCN(C(=O)c2cccn3c(=O)c4sccc4nc23)CC1	0%	11%	-26%	-17%	1%	-9%	-16%	14%
Cc1nc2sc3c(c2c(=O)o1)CC(C)(C)OC3	8%	-18%	4%	1.8%	28%	-5%	4%&4%[46.1 µM]	9%
C=CCNC(=S)NNC(=O)c1ccc(C)c(Cl)c1	1%[46.1 µM]	34%[activator]	nt	nt	0%	2%	-10%[46.1 µM]	4%
COc1ccc(CNC(=O)COC(=O)c2c(C)nn(-c3ccccc3)c2C)cc1OC	?	40µM*	nt	nt	2%	nt	-26%	6%
O=C(c1ccc(=O)[nH]c1)N(Cc1cccs1)C1(C(=O)NC2CCCC2)CCCCC1	12%	-15%	-16%	-2.9%	?	5%	4%	-2%
COC(=O)c1ccc(C2=NOC(C)(c3sc(-c4ccccc4)nc3C)C2)cc1 (stereo not given)	nt	9%	nt	nt	-1%	1%	nt	-19%
Cc1onc(-c2ccc(Cl)cc2)c1-c1ccnc(SCC(=O)Nc2ccc(C(C)C)cc2)n1	-23%[46.1 µM]	-19%	nt	nt	-2%	9%	?	16%
CC(C)C(=O)N(Nc1nc2ccccc2s1)C(=O)C(C)C	2%	0%	1%	-2.5%	0%	1%	?	5%
CC(C)CN1CCCC(N2CCN(c3cccc(Cl)c3)CC2)C1 (stereo not given)	?	-11%	nt	nt	nt	15%	?	-11%
O=C(O)C1C2C=CC(O2)C1C(=O)Nc1ccc2c(c1)OCCO2 (stereo not given)	nt	nt	10%	-1.8%	-12%	7%	nt	nt
CC(=NO)C1CCC2C3CCC4CC(=NO)CCC4(C)C3C(C)(O)CC12C (stereo not given)	-4%	?	nt	nt	nt	nt	-6%	-24%
CC(=O)NC(Cc1cc(C)ccc1C)C(=O)N1CCN(C(=O)c2ccccc2Br)CC1 (stereo not given)	nt	0%	nt	nt	1%	6%	nt	2%
CCOc1ccc(CCNC(=O)CSCc2nc(-c3cccc(C)c3)oc2C)cc1OCC	-19%[46.1 µM]	?	?	-4.0%	nt	nt	?	nt
CCCOc1ccc(Cl)cc1/C=C1/C(=O)ON=C1C	-4%[46.1 µM]	?	nt	nt	0%	9%	-15%[46.1 µM]	-2%
Cc1ccc(/C=C(\C#N)C(=O)Nc2cccc(Br)c2)o1	25%[46.1 µM]	29%	13µM*	-1.3%	nt	nt	nt	nt
Cc1ccc(S(=O)(=O)CCC(=O)Nc2nc3c(s2)CCCC3)cc1	-22%	-10%	-12%	-4.5%	-4%	5%	0%	24%
Cc1ccc(CNC(=O)c2nnn(CC(=O)Nc3cccc(C)c3C)c2N)cc1	-1%[46.1 µM]	-3%	nt	nt	5%	1%	16%[46.1 µM]	-2%
COc1ccc(NC(=O)c2cc(S(=O)(=O)N3CCCC3)cn2C)cc1Cl	nt	0%	nt	nt	-15%	14%	nt	-6%
CCN(CC)CC(C)(C)COC(=O)c1oc2ccccc2c1C	15%	14%	nt	nt	-1%	-5%	-19%[46.1 µM]	-11%
CCCn1c2ccccc2c2nnc(SC(CC)C(=O)Nc3cc(C)on3)nc21 (stereo not given)	?	-22%	-21%	-14%	8%	1%	13µM*	21%
Cc1nn(Cc2ccc(Cl)cc2)c(C)c1NC(=O)CCCn1nc(C)c([N+](=O)[O-])c1C	?	-27%	?	-5.9%	-1%	5%	13µM*	0%
COc1ccc(NC(=O)CN2CCN(c3ccccc3C)CC2)cc1	?	2%	nt	nt	-9%	-25%	-23%[46.1 µM]	-1%
Cc1ccc(C)c(S(=O)(=O)N2CC(=O)Nc3ccccc32)c1	1%	-29%	-2%	-0.5%	4%	0%	-5%[46.1 µM]	-6%
COc1ccc(CCNC(=O)COC(=O)c2ccc(OC)cc2OC)cc1	-15%	-3%	nt	nt	2%	nt	-1%	-14%
Cc1cc(C)c(S(=O)(=O)N2CCOC2CNC(=O)C(=O)NCCCn2ccnc2)c(C)c1 (stereo not given)	6%	1%	nt	nt	2%	-5%	0%[46.1 µM]	-22%
O=C(CN1CCN(c2ccccc2)CC1)Nc1c(C(=O)C2CC2)oc2ccccc12	?	5%	11%	-5.2%	-30%	1%	?	0%
CC(C)Cn1c(SCc2cccc(F)c2)nc2ccsc2c1=O	6%[46.1 µM]	-2%	2%	-8.0%	nt	nt	nt	nt
COc1cccc(N2CC(NC(=O)c3cccs3)CC2=O)c1 (stereo not given)	-7%[46.1 µM]	-14%	8%	0.1%	nt	nt	nt	nt
Cc1c(Nc2ncnc3c2cnn3-c2ccccc2)c(=O)n(-c2ccccc2)n1C	1%	nt	3%	0.3%	2%	-11%	-9%	14%
CCOc1nc(-c2ccc(OC)cc2)ccc1-c1noc(C)n1	4%	7%	?	5.7%	2%	-1%	2%	2%
CCCn1c(=O)c2c(ncn2C)n(CCC)c1=O	9%	-10%&-11%	5%	-5.4%	nt	0%	10%&10%&10%&-17%&10%&10%	42%[18.4 µM]
CNC(=O)c1cc(Cl)c(OC)c(OC)c1	?	-12%	5%	0.8%	-6%	10%	8%	-22%
CCCCNC(=O)COC(=O)c1ccc(F)cc1Cl	0%[46.1 µM]	20%	nt	nt	-4%	nt	12%[46.1 µM]	19%
Cc1ccccc1-c1oc(C)c(C)[n+]1[O-]	1%	1%	nt	nt	1%	nt	-1%	-1%
Cc1ccc(NC(=O)CSc2nnc(-c3ccoc3C)n2CCCN(C)C)cc1Cl	-9%	-3%	nt	nt	-10%	0%	?	-2%
Cc1cc2nc(Sc3c([N+](=O)[O-])nc(C)n3Cc3ccccc3)[nH]c2cc1C	1%	32µM*	-6%	-0.9%	9%	-2%	?	-5%
COc1ccc(C(=O)N/N=C/c2c(C)nn(-c3ccccc3)c2OC)cc1	?	-1%	nt	nt	nt	nt	?	-3%
COc1ccc(N2C(=O)C(Cl)=C(N(CCO)Cc3ccccc3)C2=O)cc1	10%	-5%	-9%	-16%	12%	-9%	-2%	18%
O=C(CC1OC(=O)c2ccccc21)Nc1ccc(Cl)c(S(=O)(=O)N2CCCCC2)c1 (stereo not given)	-10%	?	nt	nt	nt	nt	?	8%
C=CCn1c(SCC(=O)Nc2cccc(S(=O)(=O)N(C)c3ccccc3)c2)nnc1C1CC1	?	0%	nt	nt	0%	nt	-7%	-11%
CCOc1ccc(C(C)(C)C)cc1S(=O)(=O)N1CC(C)OC(C)C1 (stereo not given)	-15%	-2%	?	-11%	-2%	-68%	-26%	-3%
Oc1ccc2ccccc2c1/C=N/Nc1nnc(-c2ncc[nH]2)c2ccccc12	?	-3%	25µM*	-14%	?	-228%	6.5µM*	29%
Cc1cccc(OC(C)C(=O)OCC(=O)N2CCN(c3ccccc3)CC2)c1 (stereo not given)	25%	-11%	nt	nt	-22%	nt	24%	-9%
CC(C)c1ccc(NC(=O)c2ccc(Cn3nc(N4CCN(c5ccccc5)CC4)ccc3=O)o2)cc1	17%[46.1 µM]	?	?	-14%	nt	nt	nt	nt
Cc1ccc(C)c(S(=O)(=O)Nc2ccc3sc(C)nc3c2)c1	?	20%	5%	-8.1%	5%	2%	-25%	15%
COc1ccccc1CNC(=O)c1cccnc1	21%	-22%	nt	nt	-1%	7%	-1%	-8%
The list goes on:
SMILES	LASV entry inh	2A StopGo	Cruzain noTriton	Cruzain Triton	SARS PLpro yeast	NS1 inh	Marburg entry inh	RE007 growth inh
O=C(COc1ccc(S(=O)(=O)NC2CCCCC2)cc1)NCC1CCCO1 (stereo not given)	-3%	nt	-1%	7.7%	0%	-4%	9%	-11%
O=C(O)/C=C/c1ccc(-n2ccnc2)cc1	nt	13%	nt	nt	0%	-2%	nt	-10%
CC(C)OCCCNC(=O)c1ccc(NS(C)(=O)=O)cc1	4%	7%	-14%	-3.9%	5%	-18%	13%	0%
CCCc1[nH]c(=O)c(C#N)c2c1COC(C)(C)C2	0%	-24%	-2%	1.9%	-6%	1%	1%	-7%
O=C(COc1cccc2c1CCNC2=O)Nc1ccc(Cl)cc1	-25%	-23%	nt	nt	6%	nt	-16%	-16%

Compounds were not picked by outcome; about 4.8% have a hit in one of these screens.
